D2 potentiator – Beta-Arrestin HTS for Positive Allosteric Modulators of the Human D2 Dopamine Receptor: Potentiators; hit rate 0.23% among 360,000; DiscoveRx D2 beta-arrestin cells, luminescence, 90 min; 100% = 57 uM dopamine signal; potentiation, % (test concentration not listed); active = potentiation of 50% or more; inconclusive = 30% to 50%; inactive = 30% or less;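 also: compound concentration not given in the record; tested on top of an EC20 dose of dopamine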
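D2 cells co-treated with compound plus 50 nM dopamine (EC20) for 90 min at 37 deg C to detect potentiation. Beta-arrestin recruitment was read as enzyme-fragment luminescence after 1 h at ambient temperature. Full response was set by 57 uM dopamine.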
Six1-Eya2 inh – qHTS Assay for Inhibitors of the Six1/Eya2 Interaction; AlphaScreen GST-Six1/His-Eya2 binding, biochemical; hits give low values; control for the full effect not named in the record; activity change, % (test concentration not listed); hit rate 0.56% among 360,000; in the data active = activity change below about -65%; inconclusive = about -30% to -65%; inactive = above about -30%; also: % is scaled to controls: 0 for no effect and ±100 for the full control effect; compound concentration not given in the record
Target sequence (O00167 whole entry, looked up): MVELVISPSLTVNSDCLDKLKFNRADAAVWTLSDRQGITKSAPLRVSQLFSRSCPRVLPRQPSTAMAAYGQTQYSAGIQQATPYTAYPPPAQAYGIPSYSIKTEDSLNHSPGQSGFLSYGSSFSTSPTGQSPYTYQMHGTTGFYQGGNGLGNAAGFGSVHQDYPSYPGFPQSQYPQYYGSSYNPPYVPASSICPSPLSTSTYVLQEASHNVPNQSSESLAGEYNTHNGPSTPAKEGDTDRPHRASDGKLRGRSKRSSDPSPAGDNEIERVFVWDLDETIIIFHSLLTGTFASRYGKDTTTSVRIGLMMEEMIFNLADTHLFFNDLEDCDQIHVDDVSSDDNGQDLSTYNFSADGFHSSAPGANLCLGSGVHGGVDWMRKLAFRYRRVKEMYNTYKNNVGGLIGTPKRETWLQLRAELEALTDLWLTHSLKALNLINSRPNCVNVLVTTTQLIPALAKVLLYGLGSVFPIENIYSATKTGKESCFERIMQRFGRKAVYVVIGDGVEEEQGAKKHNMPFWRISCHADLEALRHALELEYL
Target sequence (Q15475 whole entry, looked up): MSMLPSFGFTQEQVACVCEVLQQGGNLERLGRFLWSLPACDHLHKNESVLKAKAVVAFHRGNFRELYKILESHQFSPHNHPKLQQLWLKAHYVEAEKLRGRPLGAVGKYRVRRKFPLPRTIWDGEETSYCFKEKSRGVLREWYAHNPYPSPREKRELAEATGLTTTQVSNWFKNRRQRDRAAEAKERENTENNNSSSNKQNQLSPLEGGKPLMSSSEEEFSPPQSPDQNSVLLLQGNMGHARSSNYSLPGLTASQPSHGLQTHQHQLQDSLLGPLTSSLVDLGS
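AlphaScreen with GST-Six1 and His-Eya2 (5X mix: 250 nM and 500 nM), glutathione donor and nickel acceptor beads; buffer 50 mM Tris pH 8.0, 300 mM NaCl, 1 mM TCEP; 1 h at 37 C in the dark.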
TRPML1 blocker – qHTS for Inhibitors of the Human Mucolipin Transient Receptor Potential 1 (TRPML1). Mucolipin-1 (Homo sapiens), Q9GZU1. TRPML1-inducible cells, Ca2+ dye fluorescence, FDSS; hits give low values; inhibition of EC80 agonist-evoked calcium signal. activity change, negative = inhibition, % (test concentration not listed). hit rate 0.02% among 390,000; in the data active means activity change below about -50%; inconclusive means about -30% to -50%; inactive means above about -30%;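 also: stimulus is agonist 54-4 at its EC80 concentration; % is scaled to controls: 0 for no effect and ±100 for the full control effect; compound concentration not given in the record; the text of the record puts the active cut at -80%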
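Tet-induced TRPML1-DL cells loaded with Ca8 no-wash calcium dye were read kinetically on FDSS. Compound addition was followed by EC80 agonist 54-4 (4 uM final); inhibition was read over 110 s.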
TRPML1 ag – qHTS for Agonists of the Human Mucolipin Transient Receptor Potential 1 (TRPML1); Mucolipin-1 (Homo sapiens), Q9GZU1; TRPML1-expressing cells, Ca2+ dye fluorescence, FDSS; host cell line not named in the record; reference of the full effect not given here; activation, % (no concentration beside the values); hit rate 0.12% among 410,000; AID 624414, 2012; in the data active = activation above about 50%; inconclusive = about 30% to 50%; inactive = below about 30%; also: 0% is about no effect; the text of the record puts the active cut at 80%
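In this qHTS format, compounds were pin-transferred onto Ca8-dye-loaded TRPML1-DL cells induced with Tet overnight, and intracellular Ca2+ fluorescence was recorded kinetically for 110 s after a 10 s baseline. A subsequent 4uM final 54-4 (EC80) addition followed by a second 110 s read served as the antagonist phase.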
D2 ag – Beta-Arrestin HTS for Positive Allosteric Modulators of the Human D2 Dopamine Receptor: Agonists; D(2) dopamine receptor (Homo sapiens), P14416; DiscoveRx PathHunter D2 beta-arrestin, luminescence, 90 min; 100% = 57 uM dopamine signal; activation, % (concentration not given with the values); hit rate 0.084% among 360,000; AID 624465, 2012; in the data active = activation above about 40%; inconclusive = about 15% to 40%; inactive = below about 15%; also: compound concentration not given in the record; the text of the record calls up to 30% inactive
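DiscoveRx PathHunter D2 beta-arrestin cells (2,100/well) attached overnight, then compound-stimulated 90 min at 37 C in HBSS/10 mM HEPES/0.1% Tween-20 buffer; beta-galactosidase complementation read by luminescence after 1 h at ambient temperature. Dopamine 57 uM final (EC100) as control.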
PINK1 expr mod – A Quantitative High throughput Screen to Identify Chemical Modulators of PINK1 Expression; Potency, µM (titrated, usually from 76.6 µM), for inactives: top-dose activation (PINK1 increase), most hits filed as activators; hit rate 0.2% among 410,000; PINK1 immunofluorescence, high-content cytometry, 24 h; active = well fitted activation curve with a large enough effect; inconclusive = small, poorly fitted or top-dose-only effect; inactive = flat fitted curve, though single readings scatter; cell line not stated here;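 also: potency is read from the fitted curve at half-maximal effect; % of control where 0% means no effect; nearly all actives have a fitted effect of over 65% in size; a mitochondrial uncoupler was the plate control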
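PINK1 protein level read as immunofluorescence by microplate cytometer in a fixed, stained stable cell line after 24 h exposure to five compound concentrations, with CCCP as control.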
The depositor's hits bear a star; ? = inconclusive; . = not tested or not shown; & = joins results of further samples; [ ] = dose if it differs, or a comment.

Values in the order: TRPML1 blocker	D2 potentiator	TRPML1 ag	Six1-Eya2 inh	D2 ag	PINK1 expr mod
CCOc1ccc(OCC(=O)Nc2nnc3n2CCS3)cc1
    -6	.	0.6	.	.	-1.0%
O=C(Nc1nccs1)c1nc[nH]c1C(=O)N1CCN(c2ccccc2)CC1
    -28	-6	0.2	-78*	-1.9	6.3%
CCc1ccc(NC(=O)CN(c2ccc(C)cc2)S(=O)(=O)c2cccs2)cc1
    -6	.	1.9	.	.	8.1%
N#CC1=C(N)N(c2ccccc2C#N)C2=C(C(=O)CCC2)C1c1ccsc1 (stereo not given)
    -15	-15	0.8	-12	-4.8	2.9%
Cc1ccc(C)c(N(C(=O)CNC(=O)c2ccco2)C(C(=O)NC2CCCCC2)c2cccnc2)c1 (stereo not given)
    -20	-8	-1.3	8	-7.4	17%
Cc1cccc(OCCCCn2c(C3CC(=O)N(c4ccc(C)cc4C)C3)nc3ccccc32)c1 (stereo not given)
    27	.	2.8	.	.	2.2%
Cc1nc(-c2ccc(C(=O)Nc3cccc(Br)c3)cc2)cs1
    -1	-7	0.0	-8	0.3	6.1%
O=C(OCC(=O)N1CCCc2ccccc21)c1cc(Br)ccc1O
    -8	22	0.9	2	-3.1	5.3%
O=C(Nc1ccc2c(c1)CCC2)c1ccc(F)cc1
    3	-8	1.9	7	-1.3	0.4%
O=C(CCN1CCOCC1)NNC(=O)/C(=C/c1ccccc1)NC(=O)c1ccccc1
    -9	-4	0.0	0	-7.4	1.1%
O=C(CS(=O)CC(=O)N(CC(=O)NC1CCCC1)c1ccc2c(c1)OCCO2)Nc1ccc(F)cc1 (stereo not given)
    0	-20	0.2	2	-2.9	.
CCc1nc2ccc(C(=O)N3CCN(c4ccccc4)CC3)cc2nc1CC
    7&-17	-5	2.2&1.5	-5	6.2	0.7%&3.7%
COc1cccc(CNC(=O)c2cccn2-c2nnc(N3CCCC3)s2)c1
    -28	.	1.1	.	.	-0.7%
Cc1nc(CS(=O)(=O)c2ccccc2)cc(N2CCN(c3ccccc3F)CC2)n1
    -19	1	0.2	6	-2.7	-1.5%
Cc1oc2ccc(O)c(CN3CCCC3)c2c1C(=O)Nc1ccccc1
    28	.	-0.5	.	.	2.3%
Cc1cccc(NC(=O)CCCc2ccccc2)c1C
    6	1	0.9	-2	-2.8	-0.2%
Cc1ccc(CNC(=O)C2(C(F)(F)F)C/C(=C\Cc3ccccc3)CCCO2)o1 (stereo not given)
    17&-6	-13	1.1&-0.2	-4	-1.2	2.1%
CC1CN(C(=O)c2ccc(NS(=O)(=O)c3ccc(F)cc3)cc2)CC(C)O1 (stereo not given)
    25	-4	0.1	-2	-1.7	-1.0%
CCOc1ccccc1Nc1nnc(-c2cc3cc(OC)ccc3oc2=O)s1
    -9	.	-0.1	.	.	4.9%
O=C(Nc1nccs1)c1cncc(Br)c1
    8	-23	-0.8	1	0.9	-0.2%
Cc1nc2c(C)cccn2c(=O)c1NC(=O)c1cccs1
    -14	-1	1.0	-11	-3.5	1.3%
Cc1cccc(-c2noc(-c3cc(-c4ccc(F)cc4)n[nH]3)n2)c1
    12	.	0.5	.	.	-1.4%
Cc1ccc(/C=N/Nc2ccnc3cc(Cl)ccc23)c(C)c1
    11	-2	1.6	-1	-1.5	-1.5%
O=C1CC(c2ccccc2)CC(O)=C1C=NCCN1CCOCC1 (stereo not given)
    -17	10	0.3	3	1.0	1.5%[38.3 µM]
O=C(Nc1ccccc1N1CCOCC1)c1ccco1
    9	-6	-0.8	4	-2.6	0.4%
CC(C)Oc1ccc(C(=O)NCc2ccco2)cc1
    11	10	-0.9	-3	1.2	-1.7%
CC1N(O)C(c2ccc(Cl)cc2Cl)N(O)C1(C)C (stereo not given)
    0	-2	-1.5	-2	-4.9	-0.5%
COc1ccc(C2C(=O)N(C3CCCCC3)CC(=O)N2Cc2ccc3c(c2)OCO3)cc1 (stereo not given)
    -13	1	0.9	-4	8.1	2.2%
COc1cccc(-n2c(CN3CCN(c4cccc(C)c4)C(C)C3)nc3ccc([N+](=O)[O-])cc3c2=O)c1 (stereo not given)
    22	-7	-0.3	-15	0.4	-1.3%
O=S(=O)(Nc1ncccn1)c1ccc(NS(=O)(=O)c2cc(Cl)ccc2Cl)cc1
    -1	-4	1.1	11	-4.7	2.3%
Cc1cc(OC(=O)c2ccc(S(=O)(=O)N(C)C)cc2)cc(=O)o1
    -9	-2	-0.2	4	-0.8	-1.8%
CN(C)C(=O)c1cccc(-c2cnc3cccnn23)c1
    .	-1	-0.5	2	-2.9	0.7%
COC(=O)c1c(SCC(=O)Nc2cccc(C(F)(F)F)c2)[nH]c2ccccc2c1=O
    -12	.	-0.1	.	.	2.7%
COC(=O)c1nc2nc(-c3cccs3)cc(C(F)(F)F)n2n1
    3	3	-0.4	-4	8.1	0.3%
O=c1c2ccccc2sn1-c1ccccc1F
    .	.	.	-3	-6.2	-0.3%
COC(=O)c1ccc(/C=C(\C#N)c2ccccn2)cc1
    8	-15	-0.2	-7	1.0	9.4%
COc1cccc(NC(=O)Cn2c(=O)n(CCCCC(=O)NCc3ccc4c(c3)OCO4)c(=O)c3ccccc32)c1
    26	.	-0.3	.	.	6.4%
CCCNS(=O)(=O)c1cccc(C(=O)OCc2cc(=O)oc3cc(OC)ccc23)c1
    16	5	4.4	-18	3.4	3.9%
CC(=O)NC(Cc1ccccc1F)C(=O)NC1CCN(C(=O)Nc2ccc(C)cc2)CC1 (stereo not given)
    -5	-13	0.9	9	-5.8	-0.5%
COCCN(CCOC)S(=O)(=O)c1ccc(C(=O)Nc2sc3c(c2C(N)=O)CCCCC3)cc1
    -7	-2	-0.3	7	-2.1	4.8%

Among those listed so far, 3 have a CF3 group:
Values in the order: TRPML1 blocker	D2 potentiator	TRPML1 ag	Six1-Eya2 inh	D2 ag	PINK1 expr mod
Cc1ccc(CNC(=O)C2(C(F)(F)F)C/C(=C\Cc3ccccc3)CCCO2)o1 (stereo not given)
    17&-6	-13	1.1&-0.2	-4	-1.2	2.1%
COC(=O)c1c(SCC(=O)Nc2cccc(C(F)(F)F)c2)[nH]c2ccccc2c1=O
    -12	.	-0.1	.	.	2.7%
COC(=O)c1nc2nc(-c3cccs3)cc(C(F)(F)F)n2n1
    3	3	-0.4	-4	8.1	0.3%

Other compounds.
Values in the order: TRPML1 blocker	D2 potentiator	TRPML1 ag	Six1-Eya2 inh	D2 ag	PINK1 expr mod
Cc1cccc(Nc2ncc(NC(=O)c3cccc(F)c3)c(Nc3cccc(C)c3)n2)c1
    -4	.	1.6	.	.	5.5%
C=CCn1c(SCCOc2ccc(OC)cc2)nnc1C(C)NC(=O)c1ccc(OC)cc1 (stereo not given)
    0	-8	0.2	-2	-1.7	6.5%[38.3 µM]
Cc1cc(NC(=O)CSc2nc3cc(Cl)ccc3o2)no1
    -13	-2	2.1	7	5.3	-1.3%
O=C(c1ccco1)N1CCN(S(=O)(=O)c2ccc3c(c2)CCN3C(=O)C2CCC2)CC1
    -19	-6	-0.6	-1	-1.9	13%
COc1ccc(N2C(=O)C(C)C(Cc3ccc(C)cc3)C2=O)cc1 (stereo not given)
    -1	-5	-0.8	1	4.4	0.7%
OCCc1ccc(NCCc2cccs2)cc1
    .	3	-0.7	-8	1.6	0.7%
COc1cc2c(cc1OC)C(c1ccc(C)o1)CC(=O)N2 (stereo not given)
    17	2	0.0	-20	1.6	3.2%
CC1(C)CC(=O)C/C(=N/NC(=O)CCCOc2ccc(Cl)cc2Cl)C1
    -26	-10	0.0	-5	1.3	0.2%
CCCCCCn1cc(CN2CC(N3CCN(Cc4ccccc4F)CC3)CS2(=O)=O)nn1 (stereo not given)
    .	.	-1.1	5	.	-0.5%
COc1ccc(-c2nc3c(c(SCC(=O)N4CCCC4)n2)COC(C)(C)C3)cc1
    7	-11	-0.2	14	-1.8	1.1%
C[n+]1ccn(CC(=O)c2cc(C(C)(C)C)c(O)c(C(C)(C)C)c2)c1
    8	-1	-0.1	-1	1.9	0.0%
Cc1cccc(C)c1Cn1c(C)c(C(=O)NCCC#N)sc1=O
    .	-7	-0.6	2	8.0	-0.6%
CN1CCN(S(=O)(=O)c2cccc(C(=O)Nc3sc4c(c3C(N)=O)CCCC4)c2)CC1
    -3	22	-0.1	?	-1.4	0.4%
CC(C)(C)NC(=O)/C=N/O
    -5	-14	0.3	1	1.8	3.9%
Cc1ccc2c(c1)Oc1ccc([N+](=O)[O-])cc1C(=O)N2
    -16	-8	-0.9	0	-3.9	3.2%
COc1cc(NC(=O)CSc2nnc(Cn3nnc4ccccc43)n2C)cc(OC)c1
    6	-1	0.8	-3	-3.3	0.8%
COc1ccc(Cl)cc1NC(=O)CSc1nnc(CNC(=O)c2ccco2)o1
    -18	-3	0.4	6	-1.8	-0.4%
COc1ccccc1CNC(=O)c1ccccc1C(=O)NC(C)(C)C(=O)NCc1ccccc1OC
    21	-9	-0.4	-8	0.5	-1.1%
CC(C)c1ccc(CC(=O)N2CCC2(C)C(=O)NS(=O)(=O)c2ccc(C(C)(C)C)cc2)cc1 (stereo not given)
    .	4	-0.4	-2	1.3	1.0%
COc1ccc2nc(NC(=O)c3ccc(-n4nc(C)cc4C)cc3)sc2c1
    9	-11	68*	2	-0.7	9.9%
O=C(NNC(=O)c1cc2ccccc2oc1=O)c1ccccc1
    -7	-1	0.2	12	-0.6	6.0%
COc1ccc(NC(=O)NN2CCN(C)CC2)cc1OC
    -6	6	-0.2	3	-1.4	-0.7%
CC(C)(C)n1nnnc1CN1CCN(C(c2ccccc2)c2ccccc2)CC1
    2	-8	-1.0	-2	-4.4	0.6%
O=C(c1[nH]c(C(F)(F)F)nc1-c1ccccc1)N1CCCCC1
    4	-4	0.4	10	-2.9	-0.6%
CC(C)(C)S(=O)N1Cc2cc(C(=O)N[C@@H]3CCN(Cc4ccccc4)C3)nc(-c3cccc(-c4cc5ccccc5o4)c3)c2[C@@H]1CCO (stereo not given in full)
    .	3	-0.4	-19	12	1.8%
CC(=O)c1ccc(N(CC(=O)NC2CCS(=O)(=O)C2)S(=O)(=O)c2ccc(Cl)cc2)cc1 (stereo not given)
    -6	-33	-0.5	11	-3.9	1.3%
CN(C)C(=O)c1ccc(=O)n(Cc2ccc(Cl)cc2Cl)c1
    8	-8	-1.6	1	-4.1	0.2%
CCOc1ccccc1C(=O)NCC(=O)OCc1csc(CC(=O)Nc2ccc(C)cc2)n1
    12	5	1.3	-9	1.9	-1.3%

Source: PubChem

The order is random; 1% or so of the library scored in one or more.
